Compound activity deposited in PubChem BioAssay by ICCB-Longwood Screening Facility, Harvard Medical School.
MgrA-DNA mod: alters Staphylococcus aureus MgrA binding to DNA | fluorescence polarization | inhibition, %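 (about 10 µg/mL by stock and volumes)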 | actives 0.13% (n = 84,000);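 active = above 50% in either of two replicates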;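 note: 0% = protein plus DNA without compound and 100% = DNA alone without protein; higher means less MgrA bound to DNA so lower polarization; one replicate is shown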
S aureus helic: blocks Staphylococcus aureus DNA helicase; purified S. aureus helicase, fluorescence unwinding assay; about half of the hits fall short of the stated cut; inhibition, %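 (tested at about 80 µM)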; actives 0.05% (n = 120,000);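 active = both duplicates at 50% or more, or one of them with a favoured structure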;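 note: 0% = mean of negative control wells and 100% = mean of positive control wells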
Active calls of the source: *; nt = not tested or not shown.

Compound,S aureus helic,MgrA-DNA mod
CCOc1ccc(S(=O)(=O)N2CCCCC2)cc1-c1nc2c(C(C)(C)C)nn(C)c2c(=O)[nH]1,-5.0,-3.6
CCOC(=O)c1oc(-c2ccc(F)cc2)nc1C,8.0,nt
CC(C)C(NS(=O)(=O)c1cccs1)C(=O)Nc1nc(C(C)(C)C)cs1 (stereo not drawn),5.0,nt
Cc1nnc(SCC(=O)N2CCc3ccccc32)[nH]c1=O,-3.0,nt
COc1cc(/C=C2/SC(=Nc3ccccc3)NC2=O)cc(Cl)c1O,nt,0.2
CCc1ccc2occ(CC(=O)Nc3ccc(C(=O)OC)cc3)c2c1,-14.0,nt
C=CCNC(=O)c1cc(C)no1,8.0,nt
COC(=O)c1ccc(C2C3=C(CC(C)(C)CC3=O)Nc3ccccc3N2C(=O)C(C)C)cc1 (stereo not drawn),1.0,2.5

More entries follow.
Compound,S aureus helic,MgrA-DNA mod
S=C=Nc1ccc(Oc2ccccc2)cc1,-22.0,nt
CC1=CC(=O)C(C(=O)/C=C/c2ccc3c(c2)OCO3)C(=O)O1 (stereo not drawn),-92.0,nt
O=C(O)/C=C/C(=O)Nc1ccccc1,nt,-2.6
CC(=O)Nc1cc(C(=O)O)ccc1S(=O)(=O)c1ccc(Cl)cc1,6.0,nt
CCN=C1S/C(=C/c2ccc(OCC(=O)O)c(Cl)c2)C(=O)N1CC,14.0,4.2
CCCCn1c(O)c(N=NC(=O)c2ccccc2)c2ccccc21,7.0,nt
CSc1sc(Cl)c2c1C(=O)CCC2,nt,-2.3
CC1CC(C)CN(Cc2cn3c(-c4ccc(Br)cc4)nnc3s2)C1 (stereo not drawn),11.0,nt

The listing continues.
Compound,S aureus helic,MgrA-DNA mod
CCCCc1ccc(-n2c(-c3ccc(F)cc3)coc2=O)cc1,nt,0.7
CS(=O)(=O)c1ccccc1,nt,1.2
O=C(c1ccc(F)cc1)C1CCN(C(=O)NC2CCCCC2)CC1,-2.0,-3.2
C#CCn1c(=NC(=O)CN2C(=O)CCC2=O)sc2c3ccccc3ccc21,-8.0,nt
Cc1cc(-c2cccc(S(=O)(=O)N3CCOCC3)c2)n2c(nc3ccccc32)c1C#N,22.0,nt
COc1ccc(-n2c(SCCC#N)nc3ccccc32)cc1,1.0,nt
O=C(Nc1ccc(C(=O)N2CCCCC2)cc1)C1CCCCC1,6.0,0.9
O=C(O)Cc1nonc1NCn1nnc2ccccc21,0.0,nt

Other entries.
Compound,S aureus helic,MgrA-DNA mod
COc1ccc(NC2CC(=O)N(Cc3ccccc3)C2=O)cc1 (stereo not drawn),-11.0,nt
CCOC(=S)Nc1ccc(OC(F)(F)F)cc1,nt,-2.4
CN1C(=O)/C(=C/c2ccco2)SC1=Nc1cccc(C(=O)O)c1,16.0,15.0
Cc1nc(C(F)(F)F)ccc1C(=O)NCc1ccc2c(c1)OCO2,nt,-1.4
CCCC(NC(=O)CN)C(=O)O (stereo not drawn),nt,0.5
O=C(CCC1CCCCC1)NCCC12CC3CC(CC(C3)C1)C2,9.0,-2.0
CN1CCC[C@H]1c1cccnc1,nt,-1.7
COC(=O)C(CC(C)C)NC(=O)c1ccc(S(C)(=O)=O)cc1 (stereo not drawn),22.0,nt

Going on with the list:
Compound,S aureus helic,MgrA-DNA mod
CC(C)C(NC(=O)Cc1ccccc1)C(=O)N1CCN(c2cccc(Cl)c2)CC1 (stereo not drawn),8.0,nt
CCC(C)(C(=O)NC1CCCC1)N(Cc1cccs1)C(C)=O (stereo not drawn),4.0,nt
O=S(=O)(c1ccccc1)C(/C=N\O)/C=C/c1ccccc1 (stereo not drawn),nt,-0.8
COC(=O)CNc1nc(Cl)nc(Nc2ccc(I)cc2C)n1,-14.0,nt
Cc1ccc(-c2nc(S(=O)(=O)c3ccccc3)c(SCC(N)=O)o2)cc1,12.0,3.2
CCc1ccccc1NC(=O)c1cc(Cl)sc1Cl,-11.0,nt
COC(=O)C(CCCN1C(=O)c2ccccc2C1=O)(NC(C)=O)c1nn[nH]n1 (stereo not drawn),-4.0,-8.2
O=C(NCCN1CCCc2ccccc21)Nc1ccc2c(c1)OCCO2,28.0,nt

More structures
Compound,S aureus helic,MgrA-DNA mod
Nc1cc(F)ccc1N1CCCCCC1,-19.0,-0.3
Nc1cc2c(cc1-n1cccc1)OCCO2,12.0,-3.5
COc1ccc2cc(Br)ccc2c1CC#N,-17.0,nt
Cc1cc(C)nc(NS(=O)(=O)c2ccc(NC(=O)C(C)C)cc2)n1,nt,-1.8
Cc1cc(-c2ccc(C)c(S(=O)(=O)N3CCc4ccccc4C3)c2)on1,4.0,nt
CCCCC(C(N)=O)N1C(=O)C2C3C=CC(C3)C2C1=O (stereo not drawn),6.0,-1.6
COCc1cc(C)n(CC(=O)OC)c(=O)c1C#N,3.0,-2.5
COc1ccc(CN(C)C(=O)/C=C/c2cn(CCC#N)c3ccccc23)cc1F,7.0,nt

More compounds
Compound,S aureus helic,MgrA-DNA mod
O=C(COC(=O)c1ccccc1SCC(=O)N1CCCC1)Nc1nnc(-c2ccccc2)o1,-1.0,nt
[O-][n+]1onc2c3nsnc3c(Br)cc21,19.0,nt
CCOC(=O)c1ccc(N2C(=O)CC(N3CCN(C/C=C/c4ccccc4)CC3)C2=O)cc1 (stereo not drawn),-1.0,nt
O=C(Oc1ccc2oc3c(c2c1)CCCC3)c1cccs1,-12.0,nt
COCCCNc1nc2ccc(C)cc2n2nnnc12,-72.0,nt
CCN1CCN(C(=O)CS(=O)Cc2nc(-c3ccc(OC)cc3)oc2C)CC1 (stereo not drawn),4.0,nt
CN1CCc2c(OCC(=O)Nc3ccccc3)cccc2C1=O,20.0,nt
NC(=O)C1CCN(C(=O)/C(=C/c2ccco2)NC(=O)c2ccccc2)CC1,1.0,1.5

Remaining list, next part.
Compound,S aureus helic,MgrA-DNA mod
CCC(Sc1nc2c(cc1C#N)CCCCC2)C(=O)Nc1cc(C)on1 (stereo not drawn),9.0,1.4
Cc1nnc(COC(=O)CNC(=O)c2ccc(C(F)(F)F)cc2)o1,-6.0,nt
CC1=C(C#N)C(=O)N(CC(C)O)C(=O)/C1=C/c1ccc(-c2ccc(Cl)cc2)o1 (stereo not drawn),12.0,nt
CCOc1cc(/C=N\NC(=O)Cn2c(-c3nonc3N)nc3ccccc32)cc(I)c1OC,1.0,nt
Cc1ccc(Cl)cc1N1CCN(C(=O)CCCCCn2c(=S)[nH]c3cc4c(cc3c2=O)OCO4)CC1,3.0,nt
CN(C)c1ccc(CNc2ccc3c(c2)ncn3-c2ccccc2)cc1,-8.0,1.5
CC(C)(C)NC(=O)Oc1noc2cc(Cl)ccc12,nt,2.8
Cc1cc(C)cc(N2CC(c3nc4ccccc4n3C(C)C)CC2=O)c1 (stereo not drawn),-5.0,nt

(cont.)
Compound,S aureus helic,MgrA-DNA mod
O=c1oc2ccccc2c(NCc2ccc3c(c2)OCO3)c1CN1CCCC1,17.0,0.8
Cc1ccc2cc3cc(C(=O)Nc4cccc(Cl)c4)oc3nc2c1,2.0,nt
Cc1csc(=Nc2ccc(Cl)c(Cl)c2)n1CCCN1CCCC1=O,3.0,nt
CN(CCC#N)C(=O)c1cc2cccnc2n(Cc2ccccc2)c1=O,5.0,nt
Nc1cccc(-c2nnc(-c3cccc(N)c3)o2)c1,10.0,nt
O=C(Nc1ccncc1)c1ccc2c(c1)S(=O)(=O)c1ccccc1C2=O,-4.0,nt
Cc1sc(NC(=S)NC(=O)c2ccco2)c(C#N)c1C,1.0,0.1
NC(Cc1nc2ccccc2[nH]1)c1cccnc1 (stereo not drawn),-5.0,-0.7

More compounds:
Compound,S aureus helic,MgrA-DNA mod
COc1cccc(CNC(=O)c2[nH]c(C)c(C(=O)NC3CCCCC3)c2C)c1,-12.0,nt
Cc1csc(N2C(=O)C=CC2=O)c1C(=O)c1ccccc1,nt,12.4
Cc1ccc(CNC(=O)CC2=NS(=O)(=O)c3ccccc3N2)cc1,-10.0,nt
Cc1cccc(NC(=O)N2CCC(CN3CCc4ccccc4C3)CC2)c1,-1.0,1.5
C=CCNC(=O)CN1C(=O)c2cccnc2Sc2ccccc21,-15.0,nt
O=C(Cn1cnc2ccccc2c1=O)c1ccc2c(c1)OCCO2,9.0,nt
CSc1nc2ccc(NC(=O)C3COc4ccccc4O3)cc2s1 (stereo not drawn),-14.0,nt
Cc1ccc2nc(NCc3cccnc3)c(C=NCc3cccnc3)c(=O)n2c1,-4.0,-2.2

Next structures
Compound,S aureus helic,MgrA-DNA mod
O=C1Cc2cc(S(=O)(=O)NCc3ccccc3Cl)ccc2N1,-7.0,nt
O=C(Nc1ccc2c(c1)OCO2)c1cn(-c2ccccc2)nc1-c1cccs1,23.0,nt
CCc1onc(C)c1C(=O)Nc1ccc(Br)cc1F,-5.0,nt
O=C(O)Cn1cccc1C(=O)c1ccccc1,0.0,nt
CC(=O)Nc1nnc(SCC(=O)N2C(C)CCCC2C)s1 (stereo not drawn),14.0,-0.5
O=C(CCC(=O)N1CCSc2ccccc21)N1CCN(c2ccccc2)CC1,14.0,nt
O=C(CCN1CCCCC1)Nc1ccccc1,-2.0,3.3
Cc1cc(-c2ccccc2)o[n+]1C,-1.0,1.8

Whole records as entered above.
Shown for `CCc1onc(C)c1C(=O)Nc1ccc(Br)cc1F` = S aureus helic: -5.0; MgrA-DNA mod: nt
Shown for `O=C1Cc2cc(S(=O)(=O)NCc3ccccc3Cl)ccc2N1` = S aureus helic: -7.0; MgrA-DNA mod: nt

(further entries)
Compound,S aureus helic,MgrA-DNA mod
CC(=O)NC(C(=O)Nc1nc(-c2ccc(C)s2)cs1)C(C)C (stereo not drawn),-15.0,nt
N/C(=N\O)c1cc(C(F)(F)F)cc(C(F)(F)F)c1,nt,-1.3
CCN(CC)C(=O)Cn1nc(-c2ccc(Cl)cc2)c2ccccc2c1=O,-1.0,nt
CCc1ccc(S(=O)(=O)N2CCn3cccc3C2c2ccc(Cl)cc2)s1 (stereo not drawn),2.0,nt
O=C(O)c1cccc(Cn2c(Cl)c(/C=N/NC(=O)c3ccncc3)sc2=O)c1,-9.0,nt
Cc1c(Cl)cccc1-n1c(SCC(=O)NCC2CCCO2)nc2n[nH]c(C)c2c1=N (stereo not drawn),9.0,nt
O=C1N=C(N2CCCCC2)S/C1=C/C1=Cc2ccccc2OC1,-33.0,nt
Cc1ccc(-c2[nH]nc3c2C(c2ccccc2)C2=C(CC(C)(C)CC2=O)N3)cc1 (stereo not drawn),8.0,5.2

Remaining list, next part.
Compound,S aureus helic,MgrA-DNA mod
Cc1ccc(-n2nc(C)c(/C=N/NC(=O)Cc3nc4ccccc4n3C)c2Cl)cc1,12.0,nt
Nc1c([N+](=O)[O-])c(=O)oc2ccccc12,nt,2.0
CN(C)CCNC(=S)Nc1ccc(F)c(Cl)c1,-3.0,0.7
CCOC(=O)c1c(Sc2ccccc2)cnn1C(=O)c1ccc(C(F)(F)F)cc1,nt,1.4
Cn1ncc(COC(=O)Nc2c(Cl)cccc2Cl)c1C(F)(F)F,nt,-1.4
CN1C(=O)c2ccc(-c3ccc(C=C4C(=O)NC(=O)NC4=O)o3)cc2C1=O,3.0,10.4
CSc1nc2c(C)c(C)c(C)c(C)c2[nH]1,nt,-1.4
N#C/C(=C\C1=C(N2CCOCC2)C(=C\c2ccccc2)/CC1)c1nnc2n1CCCCC2,-62.0,nt

Carrying on.
Compound,S aureus helic,MgrA-DNA mod
CC(C1CC1)N(CC(F)(F)F)C(=O)c1cc(S(=O)(=O)N(C)C)ccc1N1CCCC1 (stereo not drawn),10.0,nt
COC(=O)c1c(C)[nH]c(C)c1/C=C(\C#N)S(=O)(=O)c1ccc(C)cc1,nt,1.4
O=C1COc2ccc(N3Cc4ccccc4C3)cc2N1,nt,-2.0
CC1(C)C2CC[C@]3(C)C(C(=O)C=C4[C@@H]5C[C@@](C)(C(=O)O)CC[C@]5(C)CC[C@]43C)[C@@]2(C)CC[C@@H]1O (stereo partly drawn),nt,0.6
O=C(OCn1nnc2ccccc2c1=O)C1CCCCN1S(=O)(=O)c1ccccc1 (stereo not drawn),0.0,nt
CCC(=O)NCc1cc(-c2nn(C)c(=O)c3ccccc23)ccc1OC,4.0,-1.5
CC1=CC(c2ccccc2)n2nc(N3C(=O)c4ccccc4C3=O)nc2N1 (stereo not drawn),0.0,nt
CN(Cc1cccs1)C(=O)Cc1ccc2c(c1)OCCO2,5.0,nt

Next part:
Compound,S aureus helic,MgrA-DNA mod
Cc1c(NS(=O)(=O)c2cc(Br)cc3c2N(C(=O)C2CC2)CC3)c(=O)n(-c2ccccc2)n1C,-3.0,nt
CC(=O)N(C)c1ccc(N=Cc2ccc(O)cc2)cc1,14.0,-4.1
C/C(=N\O)c1cc2cc(Cl)ccc2oc1=O,16.0,nt
COC(=O)CSc1nnc(CNc2ccc(Cl)cc2)n1-c1ccc(OC)cc1,-2.0,1.0
CC1=C(C(=O)OCC2CCCCC2)C(c2ccc(OCc3ccccc3)cc2)NC(=O)N1 (stereo not drawn),nt,-1.0
Nc1nnc(SCC(=O)OCc2ccccc2)s1,10.0,nt
COc1cc(C(O)c2nccn2C)cc(OC)c1OC (stereo not drawn),17.0,nt
CCCCn1c(CCNC(=O)C(C)C)nc2ccccc21,2.0,0.3

(continued)
Compound,S aureus helic,MgrA-DNA mod
CC(CC(=O)NC1CCCCCC1)CC1=NS(=O)(=O)c2ccccc2N1 (stereo not drawn),-4.0,1.0
NS(=O)(=O)c1ccc(CCNC(=O)CCCn2ncn3c(cc4occc43)c2=O)cc1,-29.0,nt
COc1cc2c(cc1OC)C(c1ccccc1)N(C(=O)C(C)(C)C)CC2 (stereo not drawn),5.0,0.5
O=C(c1cc(-c2ccc(F)cc2)n[nH]1)N1CCN(c2cccc(Cl)c2)CC1,6.0,-1.3
Cc1cc2[nH]c(=O)[nH]c2cc1S(=O)(=O)N1CCOCC1,13.0,nt
O=c1oc2ccccc2cc1-c1nc2ccccc2o1,8.0,nt
Cc1sc2ncnc(N(C)Cc3ccco3)c2c1C,1.0,nt
COC(=O)c1ccc(NC(=O)Cn2nc(SC)n(N)c2=S)cc1,16.0,4.9

Some of the compounds tested. The share of hits here may be higher or lower than overall.
